VACV mCherry inh: qHTS for Stage-Specific Inhibitors of Vaccinia Orthopoxvirus: mCherry Reporter Primary qHTS; Vaccinia virus mCherry reporter infection, fluorescence; about a quarter of the inactives have no number; Potency, µM (top dose mostly 36.5 µM), for inactives: at the highest dose activity change, negative = inhibition, most hits filed as inhibitors; hit rate 0.63% among 310,000; active = well fitted inhibition curve with a large enough effect; inconclusive = small, poorly fitted or top-dose-only effect; inactive = no such curve, though single readings can be large or run the other way; tested in A549 cells; further: nearly all actives have a fitted effect of over 35% in size; inactives centre near -10
Vaccinia Venus: qHTS for Stage-Specific Inhibitors of Vaccinia Orthopoxvirus: Venus Reporter Primary qHTS; Potency, µM (highest dose often 36.5 µM), for the others: at the top dose activity change, negative = inhibition, hits mostly inhibitors; hit rate 0.46% among 330,000; Vaccinia virus Venus reporter expression, fluorescence; AID 720580, 2013; active means well fitted inhibition curve with a large enough effect; inconclusive means small, poorly fitted or top-dose-only effect; inactive means no such curve, though single readings can be large or run the other way; tested in A549 cells; further: nearly all actives have a fitted effect of over 30% in size; inactives centre near -10
Active calls of the source: *; i = inactive; ? = inconclusive; · = not tested or not shown; & = joins results of further samples; [ ] = another dose, or the depositor's remark. On the % scale 0 is the no-effect control and ±100 the full control effect; potency means the concentration at half of the fitted maximal effect.

SMILES | VACV mCherry inh | Vaccinia Venus
CC(=O)N(CCC1(c2ccc(C)cc2)CCOC(C(C)C)C1)Cc1ccco1 (centres undefined) | i | -11.2%
Cc1ccc(Cl)cc1N1CCN(C(=O)C2CCN(Cc3nc(-c4cccc(Cl)c4)oc3C)CC2)CC1 | -21.1% | ?
COc1ccc(C(=O)NCC(=O)NCC(=O)OCC(=O)c2ccc(Br)cc2)cc1 | -9.9% | -12.3%
COC(=O)c1ccc(S(=O)(=O)N2CCC(c3nc4ccccc4o3)CC2)cc1 | -8.6% | -11.5%
N#CC(C(=O)CCN1C(=O)C2CC=CCC2C1=O)c1nc2ccccc2[nH]1 (centres undefined) | -17.7% | -18.5%
Cc1ccc(Cl)cc1N1CCN(C(=O)CSc2cc(=O)n(C)c3ccccc23)CC1 | -15.1% | -14.2%
O=C(Cn1nnc(-c2cccs2)n1)NCCc1ccccc1 | -26.2% | -22.2%
CCOC(=O)c1ccc(N2CCOCC2)c(NC(=O)c2ccc3c(c2)OCO3)c1 | -18.5% | -4.4%
O=S1(=O)N=C2CCCCCN2C(c2ccncc2)N1 (centres undefined) | -14.1% | -13.3%
O=C(NCc1ccco1)NC(=O)c1csc([N+](=O)[O-])c1 | -11.0% | -13.2%
CCOc1cc(C2C(C#N)=C(N)OC(C)=C2C(C)=O)c(Br)c(Br)c1OC(C)C (centres undefined) | -11.3% | ?
O=C(NC(c1ccc(Cl)cc1)c1cnccn1)C1CCN(Cc2ccc(Oc3ccccc3)cc2)CC1 (centres undefined) | -2.4% | -22.7%
CCCCOC(=O)c1sc2nc(C)cc(C)c2c1N | -9.8%[7.34 µM] | -11.2%[7.34 µM]
C[C@@H]1CN([C@@H](C)CO)C(=O)CCCn2nncc2CO[C@@H]1CN(C)C(=O)Nc1ccc(C(F)(F)F)cc1 | i | -7.0%
COc1cccc(-n2c(/C=C/c3ccccc3O)nc3ccccc3c2=O)c1 | ? | -20.4%
CC(=O)O[C@H](COc1c2ccoc2cc2oc(=O)ccc12)C(C)(C)O | 10.7% | 0.4%
Cc1nnc(SCc2c(Cl)cccc2Cl)n(N)c1=O | i | -5.2%
Cc1ccc(NC(=O)c2oc3ccc(S(=O)(=O)N4CCCCC4)cc3c2C)c(C)c1 | -4.6% | -5.7%
N/C(=N\OC(=O)c1ccc(Cl)cc1Cl)c1cccnc1 | 9.6% | -6.0%
O=C(Nc1ccc([N+](=O)[O-])cc1)Nc1ccc(N2CCOCC2)c2nonc12 | ? | 10µM*
OCCCNc1ncnc2c1ncn2[C@H]1CN(Cc2ccco2)C[C@@H](CO)O1 | 42.7%[activator] | -6.5%
N#Cc1cccc(-c2nc(N3CCNCC3)c3ccccc3n2)c1 | 19.4% | 12.7%
O=C(Nc1ccc(F)cc1)Oc1ccccc1N1CCOCC1 | -6.5% | -4.8%
CCC(C)(C)NC(=O)C(c1ccc(C)cc1)N(CC1CCCO1)C(=O)c1csnn1 (centres undefined) | -2.5% | 3.0%
CC(CCc1ccccc1)NC(=O)C(Cc1ccccc1)NS(=O)(=O)c1cccs1 (centres undefined) | -4.6% | -22.8%

The final two records of the section above open the next one.
SMILES | VACV mCherry inh | Vaccinia Venus
CCC(C)(C)NC(=O)C(c1ccc(C)cc1)N(CC1CCCO1)C(=O)c1csnn1 (centres undefined) | -2.5% | 3.0%
CC(CCc1ccccc1)NC(=O)C(Cc1ccccc1)NS(=O)(=O)c1cccs1 (centres undefined) | -4.6% | -22.8%
COC(=O)CS(=O)(=O)c1ccc2c(c1)CC(=O)N2 | · | -29.0%
O=c1c2ccccc2[nH]c(=S)n1Cc1ccccc1Cl | i | -12.2%
Cc1cc(Oc2ccccc2)nc(NCc2ccccc2)n1 | -4.8% | -14.5%
CNC(=O)CC(C(=O)O)c1ccc(OC(C)C)cc1 (centres undefined) | · | -28.2%
COc1ccc(S(=O)(=O)NCc2ccccn2)cc1NC(=O)c1ccccc1 | ? | -12.4%
COc1cc(C(=O)n2nc(C)cc2C)ccc1O | -20.8% | -13.8%
O=C(Nc1ccc2nn(-c3ccccc3)nc2c1)c1cccs1 | -3.3% | 1.3%
O=S1(=O)CCN2C(c3cccc4ccccc34)=CSC2=N1 | -3.3% | -7.6%
C/C(N)=C(/C#N)C(=O)COC(=O)c1cccc2ccccc12 | 14.0% | -15.1%
COc1ccccc1NC(=O)c1ccc2c(O)c(S(=O)(=O)c3ccccc3)c(=O)[nH]c2c1 | -13.3%[7.34 µM] | 10.7%[7.34 µM]
CC1=CC(=C2C(=O)c3ccccc3C2=O)C=C(C)O1 | -13.8% | -17.5%
Cc1nc2sc(C(c3cccc(F)c3)N3CCC(O)CC3)c(O)n2n1 (centres undefined) | -11.6% | 3.0%
C/C(=N\Nc1ccc(F)cc1F)c1ccc(Br)s1 | -27.5% | -17.5%
CCOc1ccccc1NC(=O)Cn1cnc2c(cnn2-c2ccc(C)c(C)c2)c1=O | -3.6%[1.46 µM] | -19.7%
CCCCn1c(N)c(N(CCOC)C(=O)CSCc2cccc(C)c2)c(=O)[nH]c1=O | i | -12.6%
CC1CCc2c(sc(N)c2C(N)=O)C1 (centres undefined) | -2.1% | 4.3%
COc1ccc(S(=O)(=O)N(CC(=O)Nc2ccc(S(=O)(=O)N3CCOCC3)cc2)Cc2ccc(F)cc2)cc1 | -2.4% | -16.8%
COC(=O)[C@@H](N)CS | -14.8% | -15.1%
CCN(C(=O)COC(=O)C1CCN(S(=O)(=O)c2ccc(C)c(C)c2)CC1)C1CCS(=O)(=O)C1 (centres undefined) | -12.5% | -14.3%
CCCS(=O)(=O)N1CCc2ccc(NC(=O)C3CCCO3)cc2C1 (centres undefined) | i | -17.5%
Cn1nc(C(=O)O)c(=O)n(C)c1=O | -10.7% | 3.7%
COc1ccc(Cl)cc1-n1c(/C=C/c2cccc3ccccc23)nc2ccccc2c1=O | -20.1% | -18.9%
O=C(Cn1ccc2cc(S(=O)(=O)N3CCCCC3)ccc21)NCCc1ccccc1Cl | -21.6% | -19.9%
O=C(CNC(=O)c1cccs1)N/N=C/c1ccccc1[N+](=O)[O-] | -2.6% | -2.1%
O=C(CN1CCCCCC1)Nc1cccc2c1OCO2 | -7.0% | -2.9%
COc1ccc(C(=O)Nc2ccc(S(=O)(=O)N3CCCCC3)cc2)cc1OC | -29.3% | -16.7%
CC(C)(C)N1C(=O)c2ccccc2NC(=O)C1C(=O)NCCc1ccccc1F (centres undefined) | -1.2% | 4.6%
COc1ccc(NC(=O)COc2ccc3oc(=O)cc(C)c3c2)cc1 | i | -22.4%
COc1ccc(/C=N/NC(=O)CSCC(=O)Nc2ccccc2)cc1OC | -5.2% | -10.9%
C[C@@](N)(Cc1ccc(O)cc1)C(=O)O | i | 4.3%
CCCCNC(=O)c1onc(CSc2ccncc2)c1C(=O)NCCCC | i | -15.3%
Cc1cccc(-n2c(C)nnc2SCC(=O)NC(C)c2ccco2)c1 (centres undefined) | -19.8% | -15.8%
Cc1ccc(C)n1C1CCS(=O)(=O)C1 (centres undefined) | -0.5% | -5.1%
COc1ccc2c(c1)[nH]c1c(=O)n(/N=C/C3C(C)C=C(C)CC3C)c(=O)[nH]c12 (centres undefined) | i | -9.9%
CC1CCCCN1CCCNC(=O)CN1C(=O)c2cccnc2Oc2ccccc21 (centres undefined) | -4.8% | -4.3%&-4.8%
S=C(Nc1ccc(Oc2ccccc2)cc1)N1CCN(c2ccccn2)CC1 | -10.0% | -10.5%
CC(O)/C=C/c1cccc[n+]1C (centres undefined) | i | -10.9%
CCc1cccc2sc(NC(=O)c3ccc(N4C(=O)CCC4=O)cc3)nc12 | -8.4% | -5.6%
CCCC(=O)Nc1cc2nn(-c3ccc(OC)cc3)nc2cc1C | -11.8% | -2.4%
COC(=O)c1ccc(Oc2c(Cl)cccc2[N+](=O)[O-])cc1 | i | 0.8%
CCOc1ccc(NC(=O)CN(C)C(=O)c2ccc(OCC(=O)N3CCOCC3)c(OC)c2)cc1OCC | -16.4% | -0.9%
CCOC(=O)[C@]12CCCC=C1N(CCC1=CCCCC1)C(=O)[C@H](CC(=O)N1CCOCC1)C2 | -8.7% | -24.7%
C=CCNC(=O)c1oc2ccc(S(=O)(=O)N3CCCCC3)cc2c1C | -17.5%[7.34 µM] | -11.7%[7.34 µM]
O=C(Nc1ccc(-n2cccn2)cc1)C1CCCCN1Cc1cccc2cccnc12 (centres undefined) | -19.5% | -20.8%
COc1ccc(-c2cn3ccccc3n2)cc1OC | i | -7.7%
Cc1ccnc(NC(=O)CCC(=O)c2cccs2)c1 | -8.3% | -3.2%
C=CCNC(=O)CN1CCC(O)(c2ccc(F)cc2)CC1 | -2.6% | -5.9%
Cc1ccc(S(=O)(=O)NCc2ccc(C(=O)NCCN(Cc3ccccc3)C(C)C)cc2)cc1 | -24.9% | ?
COC(=O)[C@]1(CC(C)C)N[C@H](c2ccc(SC3CCCCC3)cc2)[C@@H]2C(=O)N(C)C(=O)[C@@H]21 | -4.9% | -28.5%
O=P(COCCO)(c1ccccc1)c1ccccc1 | · | -5.4%

Further records
SMILES | VACV mCherry inh | Vaccinia Venus
Cc1cccc(CCN2C(N(C)C)=NC[C@@H]2C)c1 | i | 0.9%
CC1(Cc2cccc(F)c2)C(=O)Nc2ccc(OC(F)(F)F)cc21 (centres undefined) | 3.1% | -18.0%
O=[N+]([O-])c1ccc(Sc2n[nH]c(-c3ccncc3)n2)nc1 | -21.7% | -19.7%
C=CCn1c(SCC(=O)Nc2ccc(-c3nc4ccc(C)cc4s3)cc2)nnc1-c1ccccc1 | ? | -17.0%
COc1ccc(-c2cn3c(n2)sc2cc(C(=O)NCc4cccs4)ccc23)cc1 | -11.3% | -4.1%
CN(C)c1ccc(N=Nc2ccccc2C(=O)O)cc1 | ? | -23.4%
COc1ccc(-c2nnc(SCC(=O)NC3CC3)o2)c(OC)c1 | i | -19.4%
Cc1c(N2C(=O)C(=O)/C(=C(/O)c3ccc(Cl)cc3)C2c2ccccc2)c(=O)n(-c2ccccc2)n1C (centres undefined) | -12.2% | -4.9%
COc1cc2nc(CN(C)CC(=O)Nc3ccc(N4CCOCC4)cc3)[nH]c(=O)c2cc1OC | -10.0% | 4.7%
CCOc1ccc(S(=O)(=O)Nc2ncn[nH]2)cc1 | -9.8% | 3.2%
COc1cccc(CNC(=O)Cn2cc3c(n2)CCCCC3)c1 | -7.6% | -5.4%
CN1CC(C(=O)c2ccc([N+](=O)[O-])cc2)C(c2ccc(Cl)cc2)C1 (centres undefined) | ? | -11.7%
CC(Nc1c([N+](=O)[O-])c(=O)oc2ccccc12)C(Cl)c1ccccc1 (centres undefined) | · | ?
O=C(O)c1ccccc1Sc1ccccc1S(=O)(=O)NC1CCCCC1 | i | -0.2%
O=C(C1CCN(S(=O)(=O)Cc2ccccc2)CC1)N1CCN(c2ccccc2)CC1 | -0.3% | -7.0%
Cc1sc2c(c1C)CN(CCN1CCOCC1)CN2C(=O)c1ccccc1 | -0.1% | -10.4%
Fc1ccc(CNC(=S)NC2CCCCCC2)cc1 | -10.3% | -7.9%
CCOC(=O)C1=CCC2C(=O)N(Cc3ccccc3)C(=O)C12 (centres undefined) | 29.2% | 2.1%
O=C(CSc1nnc(NC(=O)c2cc(Br)ccc2Cl)s1)NCC1CCCO1 (centres undefined) | i | -3.0%
CC(C)CNC(=O)CC(=O)N/N=C/c1ccc(F)cc1 | -3.2% | -11.8%
COc1cc(SC)ccc1C(=O)NCCCOC(C)C | -20.3% | -2.7%
NS(=O)(=O)c1ccc(N=Cc2ccc(Br)s2)cc1 | -13.7% | 4.8%
Brc1ccc(N/N=C(/N=Nc2nn[nH]n2)c2ccccc2)cc1 | ? | 12.6µM*
C/C(COc1ccccc1)=N\NC(=O)c1nnn(-c2nonc2N)c1-c1ccc(C)cc1 | -10.8% | -11.9%
CCn1ccc2c(OCC(=O)NCCc3ccc(OC)c(OC)c3)cccc2c1=O | -1.5% | -1.3%
Cc1ccc(-c2ccc(=O)n(CCC(=O)N3CCN(Cc4ccccc4)CC3)n2)cc1 | ? | -9.2%
CCC(=O)NC(=S)Nc1ccc(NC(=O)c2ccc(C)c([N+](=O)[O-])c2)cc1 | -21.0% | -9.8%
O=C(Nc1cc(Br)ccc1O)c1cc(-c2cccs2)on1 | ? | 0.3%
CCOc1ccccc1NC(=O)CSc1nc2cccnc2n1C | -13.5% | -20.1%
CC(C)(C)NCCOc1ccc(Br)cc1 | i[1.46 µM] | -17.5%
O=C(NCCN1C(=O)C2C3C=CC(C3)C2C1=O)Nc1ccccn1 (centres undefined) | -10.2% | -6.7%
COc1ccc(CCNC(=O)C(C)Sc2ccc(C)cc2)cc1OC (centres undefined) | -18.9% | -10.7%
O=C(Nc1ccc2c(c1)OCCO2)C(c1ccccc1F)n1c(=O)c(-c2ccco2)nc2ccccc21 (centres undefined) | -4.1% | -5.6%
Cc1ccc(S(=O)(=O)N2CCN(C(=O)C(C)Cn3nc(C)c(C)c3C)CC2)cc1 (centres undefined) | -11.7% | -5.0%
CC1=C(C(=O)N(C(C)C)C(C)C)CC(CC(=O)NCc2cccs2)C(=O)N1CCCN1CCCC1=O (centres undefined) | 19.0% | -0.2%
C(=Nc1ccc(/C=C/c2ccnc3ccccc23)cc1)c1ccc2c(c1)OCO2 | -1.1% | -8.8%

Compound activity as filed in PubChem BioAssay.
